# Screens deposited in PubChem BioAssay by National Center for Advancing Translational Sciences (NCATS).
# VDR inhibitor: inhibitors of human vitamin D receptor; P11473; VDR-SRC2-3 peptide fluorescence polarization, 2 h; Potency, µM, for the others: max response, negative = inhibition, hits mostly inhibitors; actives 0.93% (n = 400,000); AID 504847; active means well fitted inhibition curve with a large enough effect; inconclusive means small, poorly fitted or top-dose-only effect, or another doubt; inactive means no such curve, though single readings can be large or run the other way; further: series mostly up to about 120 µM
# Target sequence (P11473 whole entry, looked up): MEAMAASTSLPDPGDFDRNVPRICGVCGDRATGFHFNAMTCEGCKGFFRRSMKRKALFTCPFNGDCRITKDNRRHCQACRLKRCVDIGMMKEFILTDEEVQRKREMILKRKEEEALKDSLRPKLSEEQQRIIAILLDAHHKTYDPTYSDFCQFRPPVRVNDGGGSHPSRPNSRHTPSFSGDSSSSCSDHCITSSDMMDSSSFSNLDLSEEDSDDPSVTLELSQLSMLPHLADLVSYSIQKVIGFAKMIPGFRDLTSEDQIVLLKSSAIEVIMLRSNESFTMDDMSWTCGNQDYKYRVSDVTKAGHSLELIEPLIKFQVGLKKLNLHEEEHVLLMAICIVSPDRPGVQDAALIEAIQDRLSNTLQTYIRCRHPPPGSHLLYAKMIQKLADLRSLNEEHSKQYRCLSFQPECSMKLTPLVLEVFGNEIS
#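 Compounds are added to VDR with labelled SRC2-3 coactivator peptide and held 2 h at room temperature. Inhibition of the VDR–peptide interaction is then read as a change in fluorescence polarization.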
# Starred values were filed as active, the others as inactive; ? = inconclusive; & = joins results of further samples; [ ] = remark or other dose. On the % scale 0 is the no-effect control and ±100 the full control effect; potency means the concentration at half of the fitted maximal effect. A portion of the library, so the mix of outcomes need not match the whole.
SMILES,VDR inhibitor
CCS(=O)(=O)N1N=C(c2ccc(NS(C)(=O)=O)cc2)CC1c1ccccc1 (configuration not stated),-7.2%
COCCn1c(=O)c(C)nc2cnc(N3CCN(C)CC3)nc21,8.6%
COc1ccc(OCc2cc(C(=O)N(C)C3CCOC3)no2)c(Cl)c1 (configuration not stated),-23.4%
COc1ccc(C(CC(=O)O)NS(=O)(=O)c2ccc3c(c2)N(C(C)=O)CC(C)O3)cc1 (configuration not stated),-13.1%
COc1cc(C(=O)NCC(=O)NCCN2C(=O)S/C(=C\c3ccccc3Cl)C2=O)cc(OC)c1OC,-19.2%
CCn1cc(C(=O)NCC2CCCO2)c(=O)c2cc(S(=O)(=O)N(C)C3CCCCC3)ccc21 (configuration not stated),11.1%
CCOC(=O)C1CCCn2c1nc1sc3c(c1c2=O)CCCC3 (configuration not stated),-12.1%
O=C(c1ccc2c(c1)N(Cc1cccc(Cl)c1)C(=O)c1ccccc1S2(=O)=O)N1CCN(Cc2ccccc2)CC1,2.3%
O=c1oc(-c2cccc([N+](=O)[O-])c2)nc2ccccc12,?
COc1ccccc1-n1cnnc1SCC(=O)c1ccc[nH]1,4.2%
O=C(CCOc1ccccc1)Nc1ccccc1[N+](=O)[O-],-7.6%
Cc1nn(-c2ccc(F)cc2)c(Cl)c1/C=C(\CCC(=O)O)c1nc2ccccc2s1,-3.9%
Cc1ccc(CNC(=O)c2cc3c(s2)-c2ccccc2SC3)cc1,14.5%
CC(c1ccccc1)N1C(=O)c2ccccc2C1O (configuration not stated),-1.9%
CCc1nnc(NC(=O)CSc2nc3c([nH]c4ccccc43)c(=O)n2-c2cc(C)cc(C)c2)s1,8.5%
CCCCN1C(=O)C(O)(CC(=O)c2ccco2)c2cc(Br)ccc21 (configuration not stated),-7.1%
Cn1c(-c2ccccc2F)cc2onc(-c3ccccc3)c2c1=O,-1.8%
CCC1Sc2ccccc2N(CC(=O)NC2CC2)C1=O (configuration not stated),10.0%
Cc1ccnc(NC(=O)CN2C(=O)c3ccccc3C2=O)c1,7.7%
Nc1c(C(=O)N2CCOCC2)sc2nc(N3CCOCC3)c3c(c12)CCCC3,70.8µM*
CCOC(=O)c1ccccc1NC(=O)COC(=O)C1=COCCO1,-7.7%
COc1cccc(Nc2cc(C)c3ccccc3n2)c1,-22.7%
CC(=O)c1ccc(N2Cc3ccccc3/C2=N\C(=O)Nc2ccc(Cl)cc2)cc1,0.5%
Cc1c(CNC2CCCC2)c(C(=O)O)c(C)n1Cc1ccccc1,2.8%
CC(C)c1cc(=O)n2[nH]c(N)nc2n1,4.1%
COc1ccc(CNC(=O)CS(=O)(=O)Cc2nc(-c3cccc(OC)c3)oc2C)cc1,4.8%
C=CC[n+]1c(-c2ccc(Cl)cc2Cl)csc1Nc1ccc(NC(C)=O)cc1,2.9%
CCOc1ccc(N(C(=O)c2snc(C(N)=O)c2N)C(C)C(=O)NC2CCCCC2)cc1 (configuration not stated),-14.6%
Cc1c(NC(=O)COC(=O)/C=C/c2ccccc2Br)c(=O)n(-c2ccccc2)n1C,-25.9%
Cc1ccc(S(=O)(=O)N2[C@@H](c3ccc(Cl)cc3)C(C(=O)O)=CC[C@H]2c2cccc(C)c2)cc1,-12.0%
COc1ccccc1NC(=O)c1oc2ccccc2c1NC(=O)Cc1ccccc1,-7.3%
CSc1ncc(C(=O)Nc2ccccc2C(=O)c2ccccc2)c(C)n1,5.1%
O=S(=O)(NC1=NCCC1)c1cccc(NC(=S)NCCc2ccccc2)c1,-5.8%
Cc1cc(C)cc(NC(=O)c2cccc(N3C(=O)C4C5C=CC(C5)C4C3=O)c2)c1 (configuration not stated),-0.3%
N#CCCN1CCN(CCC#N)c2ccccc21,-12.5%
Nc1c(C=C2C=CC(=O)C=C2)c(=O)nc2sc(CC(=O)N3CCOCC3)nn12,-4.3%
Cc1cc(C=O)c(C)n1-c1cc(C(=O)O)cc(C(=O)O)c1,10.3%
O=C(NCCCN1CCCCC1)c1ccc2c(c1)NC(=O)C(N1CCCCC1)S2 (configuration not stated),1.9%
O=C(COC(=O)Cc1ccc(Cl)cc1)Nc1c(F)cccc1F,9.2%
O=C(CCS(=O)(=O)c1cc(Br)cc2c1N(C(=O)C1CC1)CC2)NCc1ccc(Cl)cc1,-11.0%
CC(C)N(CC(O)COc1ccc(CC(N)=O)cc1)CC(O)COc1ccc(CC(N)=O)cc1 (configuration not stated),-9.3%
Cc1noc(C)c1COc1ccccc1C(=O)NCCc1ccc(S(N)(=O)=O)cc1,-0.2%
COC(=O)c1c(C(=O)OC)c(-c2ccc(OC)cc2)n2c1CCC2,-12.6%
COc1ccc(N(CC(=O)NCc2ccc(F)cc2)C(=O)c2snc(C(N)=O)c2N)cc1,-1.2%
COc1ccc(Sc2nnc(Cc3ccccc3)c3ccccc23)cc1,-11.8%
COCCn1c(C)cc(C(=O)CSc2nnc(C)s2)c1C,-0.7%
CCN1C(=O)/C(=C/C=C2/Sc3ccccc3N2CCO)SC1=S,?
CCC(C(=O)Nc1ccc2c(c1)OCCO2)n1c(=O)[nH]c2ccccc2c1=O (configuration not stated),-12.7%
CC(=O)c1ccc(NC(=O)C2CCC(CNS(=O)(=O)c3ccc(Br)s3)CC2)cc1 (configuration not stated),3.8%
CCc1ccc(NC(=O)CSc2nc3cc(C(=O)OC)ccc3c(=O)n2Cc2ccco2)cc1,?
CCn1c(SCC(=O)NCc2ccco2)nnc1-c1ccc(N)cc1,-15.0%
CC1CCC(=NNC(=O)c2ccccc2-n2cccc2)CC1 (configuration not stated),15.5%
Cc1c(C(=O)O)sc2nc(/C=C/c3cccc(F)c3)[nH]c(=O)c12,10.4%
O=C(O)COn1c(-c2ccccc2)nc2ccc([N+](=O)[O-])cc21,-0.7%
COc1nc(OC)nc(N2CCC(C(=O)NCc3ccc(F)cc3)CC2)n1,-7.9%
COC1CCCN(Cc2c(C(=O)N3CCc4ccccc4C3)nc3ccc(Cl)cn23)C1 (configuration not stated),-9.4%
COc1ccc(CN(Cc2ccco2)c2cnc(S(C)(=O)=O)nc2C(=O)Nc2ccc(C)cc2C)cc1,2.8%
O=C1N[C@@H](Cc2c[nH]c3ccccc23)COC(=O)[C@H](Cc2ccc(F)cc2)C/C=C\C[C@H]1CC(=O)N(CCO)Cc1ccccc1,6.0%
C=CC[C@H](CC(=O)N(CCO)Cc1ccccc1)C(=O)NC[C@H](OC(=O)[C@@H](CC=C)CC(=O)OC(C)(C)C)c1ccccc1,-1.0%
CC(C)c1cc(C(=O)N2CCCC(Nc3ccc(F)cc3)C2)n[nH]1 (configuration not stated),-3.9%

# Remaining list, next part.
SMILES,VDR inhibitor
Cc1n[nH]c(C)c1NC(=O)CN1CCN(S(=O)(=O)c2ccc(C(F)(F)F)cc2)CC1,-12.3%
CCN1CCN(C(c2cc(OC)c(OC)c(OC)c2)c2nnnn2C(C)C)CC1 (configuration not stated),8.6%
COC1(OC)N=C(N)C2(C#N)C(c3ccc(C)cc3)C12C#N (configuration not stated),30.8%[activator]
CCOc1ccc(NC(=O)c2ccc(N3CC4CC(C3)c3cccc(=O)n3C4)c(N)c2)cc1 (configuration not stated),-7.8%
CCOc1ccccc1N1CCN(CC(=O)NC(=O)NCc2ccco2)CC1,-15.6%
COc1ccc(S(=O)(=O)c2c(O)c3ccc(C(=O)NCc4ccccc4)cc3[nH]c2=O)cc1,2.9%
O=c1[nH]cnc2c1C1(CCCC1)Cc1ccccc1-2,-12.5%
Cc1ccc(N2C(=O)c3ccccc3NC2c2ccccc2O)cc1 (configuration not stated),-3.1%
CC(Oc1ccc2ccc(=O)oc2c1)C(=O)NCC1CCC(C(=O)O)CC1 (configuration not stated),-1.7%
C/C(O)=C(/C=Nc1ccccc1)C(=O)Nc1ccccc1,-0.1%
Cc1c(Cl)cccc1N=C(N)N=C(N)N,-7.4%
C=CCc1cc(Cl)ccc1OC(=O)Nc1cccc(Cl)c1,1.4%
CCN(CC(=O)Nc1ccccc1C(F)(F)F)C(=O)Cn1c(=O)cnc2ccccc21,-5.9%
Oc1[nH]c2ccccc2c1N=Nc1c(F)c(F)c(F)c(F)c1F,-16.5%
CCOc1cc(C(=O)Nc2ccc3c(c2)n(C)c(=O)c(=O)n3C)cc(OCC)c1OCC,-8.9%
CCCCC(C(=O)NC(C)(C)C)N(Cc1ccccc1Cl)C(=O)c1snc(C(N)=O)c1N (configuration not stated),-18.2%
Cc1ccc(C)c(N2CCN(CCCNC(=O)c3nnc(Cc4ccc(F)cc4Cl)o3)CC2)c1,1.2%
O=C(NCc1ccccc1F)c1cccs1,0.2%
CCc1nnc(NC(=O)CCC(=O)NCC2CCCO2)s1 (configuration not stated),18.8%
O=C1c2[nH]nc(-c3ccccc3O)c2C(c2cccc(Cl)c2)N1CC1CCCO1 (configuration not stated),-38.1%
COc1ccccc1N1CCN(Cc2cc(Br)c(O)c3ncccc23)CC1,-8.8%
O=C(Cc1ccccc1F)Nc1cc(Cl)ccc1N1CCCC1,-3.1%
COc1ccc(C)cc1NC(=O)C1CCN(S(=O)(=O)c2ccc3c(c2)CCCN3C(C)=O)CC1,4.4%
O=C(O)c1cn(Cc2ccccc2)c2ccccc2c1=O,7.2%
N#Cc1ccccc1NC(=S)NC(=O)c1cccnc1,-12.0%
O=C(NN1C(=O)c2ccccc2NC1c1cccnc1)c1ccccc1 (configuration not stated),-0.3%
CCOC(=O)C1=C(C)NC(SC(C)=O)=NC1c1ccc(OC(C)=O)c(OC)c1 (configuration not stated),-9.9%
CCn1c(NC(=O)c2ccccc2)nc2ccccc21,3.1%
Cc1ccc(S(=O)(=O)Nc2ccc3c(c2)CC(=O)N([C@H](C)CO)C[C@@H](C)[C@H](CN(C)Cc2ccc(-c4ccccc4)cc2)O3)cc1,-22.9%
CCN1C(=O)/C(=C2/Sc3ccccc3N2CC)SC1=S,-21.9%
CN(C)C(=O)Cn1c(SCC(=O)NC2CCCCC2)nc2ccccc21,16.5%
Cc1cccc(C(=O)OCC(=O)c2ccc3c(c2)OCO3)c1O,-5.8%
COc1cccc(NC(=O)CSc2ccccn2)c1,6.7%
COc1ccc(C(=O)n2c(-c3ccco3)nc3ccccc32)cc1,-2.9%
COc1ccc(C(=O)Nc2ccnn2C2CCN(CC3CC=CCC3)CC2)cc1 (configuration not stated),-24.6%
O=C(O)CC(SCc1ccc(C(=O)O)o1)C(=O)O (configuration not stated),-7.5%
CCOc1cc(CN2CCN(c3ncccn3)CC2)ccc1OC,-2.1%
COc1cc(OC)cc(C(=O)NNc2nc3cc4c(cc3s2)OCO4)c1,-20.7%
Cc1nc(CNS(=O)(=O)c2cc(F)ccc2F)cs1,-8.5%
Cc1cccc(NC(=O)CSc2nc3ccccc3nc2N2CCC(C)CC2)c1,-0.9%
CCOC(=O)CC(=O)CSc1nnc2c(n1)[nH]c1ccccc12,10.1%
Cc1nc2[nH]c(=O)c3c(n2n1)NC1=C(C(=O)CC(C)(C)C1)C3c1ccccc1 (configuration not stated),15.4%
Cn1c(SCC(=O)c2c(N)n(C)c(=O)n(C)c2=O)nnc1-c1ccc(F)cc1,-18.6%
CC[C@]12c3[nH]c4cc(CCC(=O)N(C)C)ccc4c3CCN1C(=O)[C@@H](CC(=O)NCc1ccco1)C[C@@H]2C(=O)N1CCN(C(=O)c2ccco2)CC1,0.5%
C=CCNC(=O)C(C(=O)OCC)C1CCCCC1 (configuration not stated),4.3%
CC1(C)CCc2cc(-c3ccnc(=S)[nH]3)ccc2O1,-2.8%
O=C(N/N=C/c1c(Cl)cccc1Cl)c1ccc(F)cc1,8.4%
CC(=O)NS(=O)(=O)c1ccc(NC(=O)C2c3ccccc3Oc3ccccc32)cc1,-15.5%
CCN(CC)CCN(C(=O)c1ccc2c(c1)OCCO2)c1nc2cc3c(cc2s1)OCO3,-9.5%
O=C(NN=C1CCCC1)c1ccn[nH]1,-11.0%
COc1ccc2c(c1)c1c(c(=O)n(Cc3ccccc3)c(=O)n1Cc1cccc(Cl)c1)n2C,3.7%
O=C(CCCn1cnc2ccccc2c1=O)Nc1ccccc1F,2.2%
Cc1c(Cl)cccc1NC(=O)Cn1nnc(-c2nc(-c3ccccc3)no2)c1N,4.4%
COC(=O)NCC(c1cccnc1)N1CCN(c2ccccc2F)CC1 (configuration not stated),-6.0%
Cc1ccc(S(=O)(=O)N[C@@H](Cc2ccccc2)C(=O)N2CCC(C(=O)N[C@H](C(=O)O)C(C)O)CC2)cc1 (some centres not stated),13.7%
CC1CCN(CC[C@H]2CCCN2S(=O)(=O)c2cccc(O)c2)CC1,2.3%&-18.9%&16.1%
COc1cccc(CN(C)C(=O)[C@@H](NC(=O)c2ccc(C)cc2)C(C)C)c1,-16.8%
